# NPYLR7 ag = agonists of mosquito NPYLR7 receptor, primary screen, cell-based, Aedes aegypti, calcium fluorescence, mosquito biting behavior; actives 0.15% (n = 270,000); HEK293T NPYLR7/Galpha15, GCaMP6s calcium fluorescence; AID 1259423, 2018; Aedes aegypti neuropeptide Y-like receptor 7 (NPYLR7); activation, % at 10 µM; in the data active = activation above about 40%;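 also: 0% = vehicle and 100% = reference agonist at the receptor; some compounds past the cut are filed as inactive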
# NPYLR7 ag max-min = also measured in NPYLR7 ag; calls as there; activation, %; measured here: Max-Min RFU normalised activation; some inactives read as strong as hits;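 span of the calcium signal over five minutes; 0% = vehicle and 100% = native peptide agonist; compound fluorescence can raise it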
# Starred values were filed as active, the others as inactive; & = joins results of further samples. Not all compounds are listed, so the mix of outcomes need not match the whole.
# Each structure is followed by: NPYLR7 ag	NPYLR7 ag max-min
> S=c1n(-c2ccccc2)cnn1CN1CCN(c2ccccc2Cl)CC1
 : 1	2
> Cc1ccn(Cc2cn3cc(Br)ccc3n2)c(=O)c1
 : 10	9
> O=C1CCCN1CCC(=O)N1CCCC(N2CCN(c3cccc(Cl)c3)CC2)C1 (stereo unspecified)
 : -2	-2
> Cc1ccc(Cn2nc(C)c(CNCC(O)CN3CCOCC3)c2C)cc1 (stereo unspecified)
 : 7	4
> Cc1nnsc1CN(C)C(=O)C1=NNC(=O)CC1
 : 12	3
> COc1coc(CN2CCCC(C(=O)c3ccc4ccccc4c3)C2)cc1=O (stereo unspecified)
 : 8	5
> CSc1ccc(CN2CC[C@@H](N3CCN(c4ccccc4F)CC3)[C@H](O)C2)cc1
 : 5	4
> O=C1CCN(c2nc(-c3ccccc3)nc3c2CCNC3)CCN1
 : 9	7
> O=S1(=O)C2C=C(Cc3ccccc3)C1CCC2 (stereo unspecified)
 : -7	-6
> CC(C(=O)c1ccccc1)C1(O)C(=O)N(C)c2ccccc21 (stereo unspecified)
 : 11	10
> O=C1CN(Cc2nnc(-c3ccc(Br)cc3)o2)CCN1
 : -17	-19
> CCCCC(CC)CN1C(=O)C(O)=C(C(C)=O)C1c1ccc(O)c(OC)c1 (stereo unspecified)
 : 6	4
> COc1ccc(N2CCN(c3cc(C(=O)N[C@H](CO)C(C)C)ncn3)CC2)cc1OC
 : -1	-6
> COc1ccc(-c2onc3c2CCC3)cc1NC(=O)C12CC3CC(CC(C3)C1)C2
 : 25	34
> COCCCN(CC(=O)Nc1cc(C(C)(C)C)nn1-c1ccc(C)cc1C)C(=O)c1cccc(OC)c1
 : -2	6
> COc1ccc(C(=O)NC(C(=O)NC2CC2)C2CCN(C(=O)NC(C)C)CC2)cc1 (stereo unspecified)
 : -9	-4
> COc1cccc2c1OCC(C(=O)N1CCc3c(nc(C)[nH]c3=O)C1)C2 (stereo unspecified)
 : 0	8
> O=C(NCc1ccccc1Cl)c1ccc(-c2ccc(Oc3ccccc3)cc2)s1
 : 10	15
> COc1ccc(-n2cnnc2)c(OC)n1
 : 6	5
> COCCCN(Cc1csc(COc2ccc(C)c(C)c2)n1)C(=O)Cc1ccccc1
 : -8	-5
> c1ccc2sc(C3CCCN(Cc4cc5n(n4)CCNC5)C3)nc2c1 (stereo unspecified)
 : 4	3
> CS(=O)(=O)c1nc(S(=O)(=O)c2ccc(Cl)cc2)c(N2CCCCC2)s1
 : 7	4
> CSC=CC=CC(=O)N=c1c(C#N)cc2c(=O)n3cccc(C)c3nc2n1CC1CCCO1 (stereo unspecified)
 : 1	-1
> Cc1ccn2c(NC(C)(C)CC(C)(C)C)c(-c3cccc(OC(=O)c4ccccc4)c3)nc2c1
 : 4	0
> O=C(c1cccc(C(F)(F)F)c1)N(Cc1ccco1)Cc1c(F)cccc1Cl
 : 31	9
> CCCc1noc(COC(=O)c2cnc(NC)s2)n1
 : -2	22
> OC(CN1CCOCC1)c1ccc(-c2cccc3ccnn23)cc1 (stereo unspecified)
 : 23	8
> CC(C)(C)n1nc2c(c1NC(=O)C1(c3ccc(Cl)cc3)CCCC1)CS(=O)(=O)C2
 : -5	-7
> CCC1C(=O)NCCN1C(=S)NC(=O)/C=C/c1ccccc1 (stereo unspecified)
 : 8	10
> Cc1c(CC(=O)NCc2ccncc2)c2c(n1Cc1ccccc1)CCCC2=O
 : 13	5
> NC(=O)C1CCN(c2nc3c(c(=O)[nH]2)C(c2ccc(F)c(F)c2F)CC(=O)N3)CC1 (stereo unspecified)
 : 0	23
> O=C(CCC1CCN(Cc2cnn(-c3ccccc3F)c2)CC1)N1CCOCC1
 : 18	6
> Cc1nc(CSCCC(=O)Nc2cccnc2)cs1
 : -4	-5
> CCCc1nc(N2CCN(C(=O)c3cccc(Cl)c3)CC2)c2cnn(-c3ccccc3)c2n1
 : -2	-1
> Cc1ccc(S(=O)(=O)Nc2cccc(C(F)(F)F)n2)s1
 : 11	6
> Cc1cc(C(=O)COC(=O)C=Cc2ccc(Br)o2)c(C)n1-c1nccs1
 : 2	-1
> O=C(CN1CCN(c2ccccc2)CC1)Nc1cccc2ccccc12
 : 4	5
> NS(=O)(=O)c1cc(C(=O)O)cc(N2CCCC2)c1Oc1ccccc1
 : -16	-19
> COc1ccccc1OC(C)C(=O)N/N=C(\C)c1ccc2c(c1)CCC2 (stereo unspecified)
 : 0	-4
> Cc1cccc2nc(C(=O)OC(C)C(=O)Nc3ccc(F)cc3F)cn12 (stereo unspecified)
 : 6	5
> Cc1c(C)n2c3c(=O)n(CCCO)c(=O)n(C)c3nc2n1Cc1ccco1
 : 14	11
> O=C(c1cc2n(n1)CCN(CC1CC1)C2=O)N1CCN(C/C=C/c2ccccc2)CC1
 : 14	6
> COCCN1C(=O)N(Cc2ccccc2)C2(CCN(Cc3cccc(-c4ccccc4C)c3)CC2)C1=O
 : 12	-1
> COc1cc(NS(=O)(=O)c2ccc(N)cc2)nc(OC)n1
 : -1&6&-1&-3	-7&5&-3&-7
> O=C(Nc1ccc(F)c(F)c1)C(=O)NC1(c2cccc(F)c2)CC1
 : -4	-4

# Random excerpt: 5 compounds from above.
# Each structure is followed by: NPYLR7 ag	NPYLR7 ag max-min
> CC(C(=O)c1ccccc1)C1(O)C(=O)N(C)c2ccccc21 (stereo unspecified)
 : 11	10
> COc1cccc2c1OCC(C(=O)N1CCc3c(nc(C)[nH]c3=O)C1)C2 (stereo unspecified)
 : 0	8
> NC(=O)C1CCN(c2nc3c(c(=O)[nH]2)C(c2ccc(F)c(F)c2F)CC(=O)N3)CC1 (stereo unspecified)
 : 0	23
> O=S1(=O)C2C=C(Cc3ccccc3)C1CCC2 (stereo unspecified)
 : -7	-6
> O=C1CCCN1CCC(=O)N1CCCC(N2CCN(c3cccc(Cl)c3)CC2)C1 (stereo unspecified)
 : -2	-2

# Later entries.
# Each structure is followed by: NPYLR7 ag	NPYLR7 ag max-min
> Cc1nc2sc3c(c2c(=O)o1)CCCC3
 : 19&6	8&5
> COc1ncc(NC(=O)N(C)Cc2ccc(Cl)cc2)cc1C(N)=O
 : 1	-2
> Cc1c(C)n2c3c(=O)n(CCN4CCCCC4)c(=O)n(C)c3nc2n1-c1ccccc1F
 : 2	3
> CN(C)CCCN(C(=O)CCS(=O)(=O)c1ccccc1)c1nc2cc3c(cc2s1)OCO3
 : 2	0
> Cc1ccc(-n2ccc3nc(N4CCCC4)ncc3c2=O)cc1
 : 4	8
> COC1CN(C(=O)NCc2ccccc2)CCC(=O)N(C)c2ccccc21 (stereo unspecified)
 : 6	19
> O=C(CN1CN(c2ccccc2)C2(CCN(C(=O)c3ccc(Cl)c(Cl)c3)CC2)C1=O)N1CCCC1
 : -5	2
> C/C(=N\Nc1ccc(S(=O)(=O)Nc2ccccc2)cc1[N+](=O)[O-])c1cc(O)ccc1O
 : -1	4
> CCCOCC(=O)N1CCCC(N2CCN(c3ccccc3)CC2)C1 (stereo unspecified)
 : 1	-3
> COc1ccc(OC)c(C2CCCN2C(=O)NCc2cccs2)c1 (stereo unspecified)
 : 0	0
> CN1CCN(C(=O)c2ccnc(-c3cccc(C(=O)O)c3)c2)CC1
 : 6	4
> Cn1cnc(S(=O)(=O)N2CCc3ccccc32)c1
 : 8	5
> COC(=O)[C@@H]1C[C@@H](NC(=O)COc2cccnc2)CN1C
 : 1&7	2&2
> O=C(Nc1ccc2c(ccn2CCN2CCOCC2)c1)c1ccccn1
 : -6	-8
> CCOCCn1c(=O)c2c(nc3n2CC(C)CN3c2cc(Cl)ccc2C)n(C)c1=O (stereo unspecified)
 : 8	7
> O=C(Cc1cccc2ccccc12)NCC(=O)N1CCOC2CCCCC21 (stereo unspecified)
 : 2	-2
> COC(=O)C(NC1CCN(C(=O)c2ccccc2)CC1)c1cccc(C)c1 (stereo unspecified)
 : -4	-4
> CC(C)(C)C(=O)NCCc1nc2ccccc2n1CCc1ccccc1
 : 1	1
> CC(C)NS(=O)(=O)c1ccc(Sc2n[nH]c(C3CC3)n2)c([N+](=O)[O-])c1
 : 2	8
> CCCC(C(=O)N1CCc2c(nc(N(C)C)nc2N(C)C)C1)n1cccc1 (stereo unspecified)
 : 0	-1
> Cc1cc(C)c(NC(=O)Cn2ncn3nc4c(c3c2=O)CCCC4)c(C)c1
 : -2	-6
> CCN(CC)CC(O)COC(c1ccccc1)c1ccccc1 (stereo unspecified)
 : 0	-1
> CC(C(=O)Nc1ccccc1)N1CCN(Cc2ccc3c(c2)OCO3)CC1 (stereo unspecified)
 : 0	-3
> COc1ccc(OC)c(CNC(=O)c2ccc3c(=O)n4c(nc3c2)SCCC4)c1
 : -12	-15
> O=[N+]([O-])c1ccc(Cl)c(C2c3cccn3CCCN2Cc2ccco2)c1 (stereo unspecified)
 : -15	-16
> NC(=O)c1oc2ccccc2c1NC(=O)C=Cc1ccco1
 : 3	2
> C[C@@]1(O)CCN(C(=O)/C=C/c2ccccc2)C[C@@H]1Cc1ccccc1
 : 29	28
> COc1ccc(-c2nnc(NC(=O)C(C)(C)C)s2)cc1OC
 : 2	6
> O=S(=O)(c1ccc2c(c1)nc(SCc1ccccc1OC(F)F)n2CC1CCCO1)N1CCCC1 (stereo unspecified)
 : 11	3
> O=C(CC1COCCN1)NCCN1N=C(c2ccccc2)CCC1=O (stereo unspecified)
 : 5	5

# Gathered by group, the entries above containing a furan ring, fused or not (five)
# Each structure is followed by: NPYLR7 ag	NPYLR7 ag max-min
> O=C(c1cccc(C(F)(F)F)c1)N(Cc1ccco1)Cc1c(F)cccc1Cl
 : 31	9
> Cc1cc(C(=O)COC(=O)C=Cc2ccc(Br)o2)c(C)n1-c1nccs1
 : 2	-1
> Cc1c(C)n2c3c(=O)n(CCCO)c(=O)n(C)c3nc2n1Cc1ccco1
 : 14	11
> O=[N+]([O-])c1ccc(Cl)c(C2c3cccn3CCCN2Cc2ccco2)c1 (stereo unspecified)
 : -15	-16
> NC(=O)c1oc2ccccc2c1NC(=O)C=Cc1ccco1
 : 3	2

# (continued)
# Each structure is followed by: NPYLR7 ag	NPYLR7 ag max-min
> Cc1cc(=O)[nH]c(-n2nc(-c3cccs3)cc2NC(=O)C2CC2)n1
 : -1	-3
> C=CCn1c(NC(=O)CC)c(C(=O)OCC)sc1=S
 : 3	1
> CC(C)(C)CC(C)(C)Nc1c(-c2ccc(F)cc2)nc2c(OCc3ccccc3)cccn12
 : 3	8
> CC(Sc1nncn1C)c1nnc(-c2cccs2)o1 (stereo unspecified)
 : 0	5
> CC(C)(C)NC(=O)Nc1nnc([C@H]2C[C@H](O)[C@@H](CO)O2)s1
 : 5	2
> CN1C(=O)c2ccccc2NC1c1cnc(C(C)(C)C)s1 (stereo unspecified)
 : 3	2
> CCOC(=O)c1nn(-c2ccc(C)cc2)c(=O)cc1OCC(=O)NCc1ccccc1OC
 : 8	2
> CCOCCn1cc(C2CCN(C(=O)c3ccc(F)c(C(F)(F)F)c3)CC2)c2ccccc21
 : 3	-2
> CCOCCCN(CC(=O)N1CCc2sccc2C1c1ccc(Cl)cc1)C(=O)c1ccc([N+](=O)[O-])cc1 (stereo unspecified)
 : -1	11
> Cc1ccc(C)c2[nH]c(=O)c(CCNC(=O)C(C)Oc3ccccc3)cc12 (stereo unspecified)
 : -2	16
> COCCNS(=O)(=O)c1ccc(OC)c(N2CCN(S(=O)(=O)c3cc(OC)ccc3OC)CC2)c1
 : 5	3
> O=C(c1ccc2c3c(cccc13)CC2)C1CCCN(C(=O)/C=C/c2cnc[nH]2)C1 (stereo unspecified)
 : -20	-13
> C=CCN(CC(=O)N1CCc2sccc2C1COc1ccc(Cl)c(C)c1)S(=O)(=O)c1ccc(Cl)cc1 (stereo unspecified)
 : -2	2
> CCCc1cc(=O)n(CC(=O)Nc2ccc(C)c(C)c2)cn1
 : 7	2
> COc1ccc(Cl)c2sc(N(CCCN(C)C)C(=O)c3cc(C)nn3C)nc12
 : -1	-2
> CC(C)=CCN1CCNC(=O)C1CC(=O)O (stereo unspecified)
 : 6	2
> Cc1nc2ccccn2c(=O)c1NC(=O)c1ccc(Br)cc1
 : 4	0
> Cc1ccc(C(C)N2c3cc(S(=O)(=O)N4CCOCC4)ccc3N3CCCC32)cc1 (stereo unspecified)
 : 0	0
> Oc1ccccc1C=NCC(O)c1ccccc1 (stereo unspecified)
 : 4	9
> CCOC(=O)N1CCN(C2CCCN(C(=O)c3ccc(COC)s3)C2)CC1 (stereo unspecified)
 : 2&2	-4&-2
> Cc1ccc(Nc2nc(NCCc3ccccc3)nc3nccnc23)cc1
 : 0	6
> NC(=O)c1nc(-c2ccccc2)nc2c1[nH]c(=O)n2-c1ccc(Cl)cc1
 : -5	1
> Cc1cc(C)cc(C(=O)N2CCC(CO)(CCOc3ccccc3)CC2)c1
 : 7	5
> COCCNC(=O)c1sc(=O)n(Cc2ccc(F)cc2)c1C
 : -7	-4
> CC(C)[C@H]1CC[C@H](C)C[C@@H]1OCC(=O)N1CCC2(CC1)OCCO2
 : -1	-8
> CCNC(=O)N(Cc1ccc(F)cc1F)CC1CC(c2ccccc2C)=NO1 (stereo unspecified)
 : 19	34
> Cc1sc2nc(CSCC(=O)c3cc(C)n(CCC(C)C)c3C)[nH]c(=O)c2c1C
 : -1	5
> O=C(Nc1ccccc1N1CCOCC1)c1cc(=O)[nH]c2ccc(S(=O)(=O)N3CCOCC3)cc12
 : 5	4
> CCC(=O)Nc1cccc(C(=O)N(C)CC2(CO)CCC2)c1
 : -2	-6
> CC(C)NC(=O)NC(=O)CN1CCCC(C(F)(F)F)C1 (stereo unspecified)
 : 3	1
> OCCCn1cnc(-c2ccccc2)c1-c1ccc2occc2c1
 : 2	-3

# Compound activity (PubChem)
